LASV entry inh – inhibitors of Lassa virus binding or cell entry | Lassa virus pseudotype entry inhibition, cell reporter; control for the full effect not named in the record | hit rate 1.2% among 300,000 | AID 540256 | Potency, µM (top dose mostly 37.9 µM), for inactives: at the highest dose activity change, negative = inhibition, hits mostly inhibitors; active means well fitted inhibition curve with a large enough effect; inconclusive means small, poorly fitted or top-dose-only effect, or effect the other way; inactive means flat fitted curve, though single readings scatter; tested in HEK293 cells; note: % is set by controls: 0 for no effect and ±100 for the full control effect; nearly all actives have a fitted effect of over 50% in size; luciferase read-out
Marburg entry inh – inhibitors of Marburg virus binding or cell entry; Marburg virus pseudotyped entry inhibition, cell reporter; control for the full effect not named in the record; about a third of the inactives were read at about 46 µM; Potency, µM (doses to about 37.8 µM), for the others: top-dose activity change, negative = inhibition, actives largely listed as inhibitors; hit rate 1.8% among 300,000; AID 540276; active = well fitted inhibition curve with a large enough effect; inconclusive = small, poorly fitted or top-dose-only effect, or effect the other way; inactive = flat fitted curve, though single readings scatter; tested in HEK293 cells; about a fifth of its hits are not listed in these tables; note: % is set by controls: 0 for no effect and ±100 for the full control effect; luciferase read-out
Cruzain inh noDet – inhibitors of Trypanosoma cruzi cruzain without detergent. P25779. purified cruzain, Z-FR-AMC fluorescence, no detergent. Potency, µM, inactives show max response, negative = inhibition, most hits filed as inhibitors. hit rate 2.3% among 200,000. AID 1476; active = well fitted curve in the direction sought with a large enough effect; inconclusive = small, poorly fitted or top-dose-only effect, or another doubt; inactive = no such curve, though single readings can be large; an effect the other way counts as inactive or inconclusive;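 note: plate controls were enzyme without inhibitor for no effect and buffer without enzyme for full effect; nearly all actives have a fitted effect of over 40% in size; top concentration of the series not given in the record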
Target sequence (P25779 123-467 limits assumed): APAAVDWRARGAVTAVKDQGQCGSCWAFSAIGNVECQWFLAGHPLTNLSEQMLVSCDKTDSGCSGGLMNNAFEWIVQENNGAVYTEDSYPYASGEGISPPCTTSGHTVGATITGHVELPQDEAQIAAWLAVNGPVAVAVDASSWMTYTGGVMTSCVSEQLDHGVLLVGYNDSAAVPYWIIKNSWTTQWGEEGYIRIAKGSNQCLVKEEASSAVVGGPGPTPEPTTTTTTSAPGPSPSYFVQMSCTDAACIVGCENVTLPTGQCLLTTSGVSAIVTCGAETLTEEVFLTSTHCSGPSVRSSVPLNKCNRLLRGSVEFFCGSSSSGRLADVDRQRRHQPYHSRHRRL
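Detergent-free condition (0.00005% Triton X-100) in acetate buffer pH 5.5 with DTT. 1.5 nM enzyme and compound were pre-mixed 15 min, then 2 uM Z-FR-AMC substrate added; reaction progress from fluorescence change between first and third reads (60 s).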
Cruzain inh Det – blocks cruzain activity in presence of Triton detergent; P25779; purified cruzain, Z-FR-AMC fluorescence, 0.01% Triton; Potency, µM, inactives show max response, negative = inhibition, hits mostly inhibitors; hit rate 0.43% among 200,000; AID 1478; active = well fitted curve in the direction sought with a large enough effect; inconclusive = small, poorly fitted or top-dose-only effect, or another doubt; inactive = no such curve, though single readings can be large; an effect the other way counts as inactive or inconclusive;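 note: plate controls were neutral wells for no effect and buffer without enzyme for full effect; nearly all actives have a fitted effect of over 40% in size; top concentration of the series not given in the record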
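In this qHTS format, compounds are incubated with 1.5 nM cruzain for 15 min at room temperature before 2 uM Z-FR-AMC is added. Release of AMC is followed at 360/450 nm, and progress is taken as the 60 s fluorescence difference.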
SARS PLpro yeast – SARS-CoV PLP inhibition in yeast; S. cerevisiae expressing SARS-CoV PLpro, growth rescue; control for the full effect not named in the record; Potency, µM (highest dose often 32.9 µM), for inactives: at the top dose activity, positive = growth rescue; hit rate 0.19% among 330,000; AID 485353; note: 0% is about no effect; nearly all actives have a fitted effect of over 55% in size; growth read by luminescence after 48 h
NS1 function inh – influenza NS1 inhibition. S. cerevisiae slowed by influenza A NS1, growth recovery by OD600. Potency, µM (doses to about 46.1 µM), inactives show top-dose activity, positive = more growth. hit rate 0.4% among 270,000. AID 2326; note: actives are rising curves; nearly all actives have a fitted effect of over 50% in size
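Growth recovery, yeast-based: influenza A NS1 expressed in S. cerevisiae causes slow growth, and suppressors are detected by OD600. The parent strain without NS1 is used as positive control.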
2A StopGo – FMDV 2A StopGo reporter, luciferase signal; human cells with a luciferase reporter of 2A StopGo recoding; control for the full effect not named in the record; Potency, µM (titrated, usually from 57.9 µM), for inactives: at the top dose signal change, negative = less light; hit rate 1.2% among 410,000; AID 1159524; active = well fitted falling curve with a large enough effect; inconclusive = small, poorly fitted or top-dose-only effect; inactive = no such curve, though single readings can be large or run the other way; tested in HEK293T cells; note: % is set by controls: 0 for no effect and ±100 for the full control effect; nearly all actives have a fitted effect of over 45% in size; luciferase light after 4 h
RE007 growth inh – less growth of the S. pombe RE007 Vpr strain | S. pombe RE007 Vpr strain, BacTiter-Glo ATP luminescence, 24 h; control for the full effect not named in the record | Potency, µM (doses to about 92.2 µM), inactives show top-dose activity change, negative = less growth | hit rate 0.21% among 360,000; active = well fitted falling curve with a large enough effect; inconclusive = small, poorly fitted or top-dose-only effect; inactive = no such curve, though single readings can be large or run the other way;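 note: % is set by controls: 0 for no effect and ±100 for the full control effect; nearly all actives have a fitted effect of over 50% in size; the assay follows cell death caused by Vpr and the record does not say whether a fall means rescue or toxicity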
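Fission yeast strain RE007, carrying one chromosomally integrated HIV-1 vpr copy, was seeded at OD 0.01 in PMG+AL medium with 23 nL pinned compound. After 24 h at 30 °C and 99% humidity, viability was read by BacTiter-Glo luminescence.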
The depositor's hits bear a star; ? = inconclusive; . = no result given; & = joins results of further samples; [ ] = remark or other dose. Unless noted, calls come from the whole dose curve; as a rule, active means well fitted rising curve with a large enough effect; inconclusive means small, poorly fitted or top-dose-only effect; inactive means no such curve, though single readings can be large or run the other way. Potency is the fitted concentration of half-maximal effect.

SMILES | LASV entry inh | Marburg entry inh | Cruzain inh noDet | Cruzain inh Det | SARS PLpro yeast | NS1 function inh | 2A StopGo | RE007 growth inh
Cc1ccc(C)c(OCC(=O)NCC(c2ccco2)N2CCCCC2)c1 (stereo unspecified) | -3% | -3% | . | . | 3% | . | -24% | -16%
O=C(Nc1ccccc1C(F)(F)F)c1cc2ccccn2n1 | ? | . | 5% | -1.1% | . | . | -3% | .
COC(=O)c1cc2occc2n1Cc1ccc(F)cc1Cl | . | 6%[46.1 µM] | -9% | -8.5% | . | . | -16% | .
CCCCn1c(N)c(N(CC(C)C)C(=O)c2cccc(S(=O)(=O)N3CCCCCC3)c2)c(=O)[nH]c1=O | . | . | . | . | -4% | -1% | ? | 28%
CC(Sc1n[nH]c(N)n1)C(=O)Nc1ccc(Cl)cn1 (stereo unspecified) | -4%[46.1 µM] | -1%[46.1 µM] | . | . | -2% | 8% | -17% | 11%
Cc1ccccc1NC(=S)N(C)C1(c2ccccc2Cl)CCCCC1=O (stereo unspecified) | -9% | -25% | -2% | 4.7% | 2% | 23% | 8% | -6%
Cc1cccc(OCc2nc(-c3ccc(Br)o3)no2)c1 | ? | 16%[46.1 µM] | . | . | 1% | . | 20% | -6%
CCOc1ccc(-c2noc(CSc3nnc(-c4ccccc4)n3-c3ccccc3)n2)cc1 | -24%[46.1 µM] | 2%[46.1 µM] | -9% | -3.2% | . | . | ? | .
CCOc1ccc(S(=O)(=O)N2CCOCC2)cc1NC(=O)c1ccccc1F | 13% | 0%[46.1 µM] | . | . | 3% | -3% | 23% | 13%
CC(C)CN(C(=O)CSc1nncn1-c1ccccc1)c1c(N)n(CC(C)C)c(=O)[nH]c1=O | 3% | 3% | . | . | 1% | . | -1% | -1%
O=C(COc1ccccc1)Nc1ccccc1N1CCN(c2ccc(F)cc2)CC1 | 11% | 7% | -2% | -1.8% | -3% | -4% | -22% | -11%
Cc1cccc(C(=O)Nc2ccccc2N2CCN(c3ccc(F)cc3)CC2)c1 | ? | ? | -6% | -4.4% | 10% | 2% | ? | 19%
Cc1cccc(C)c1NS(=O)(=O)c1ccc2c(c1)C(=O)c1ccccc1C2=O | -5% | 13% | 6% | -3.1% | 0% | 8% | -23% | -3%
CCOC(=O)c1ccc2nc(C)c(CC)c(Cl)c2c1 | 1% | ? | . | . | -1% | -5% | 16% | 0%
CCCc1nn(C)c2c(=O)[nH]c(-c3cc(S(N)(=O)=O)ccc3OCC)nc12 | . | . | . | . | 2% | 0% | -9% | 0%
CCOc1ccc(S(=O)(=O)Nc2cccc(C(=O)NCC(c3ccco3)N(C)C)c2)cc1 (stereo unspecified) | -12% | 6% | . | . | 3% | . | 16% | -27%
Cn1c(C(O)c2ccccc2)nc(Cl)c1Cl (stereo unspecified) | 5% | ? | -1% | -1.4% | 1% | 8% | 21% | 4%
COC(=O)C(C)Sc1nc2c([nH]c3ccccc32)c(=O)n1C (stereo unspecified) | -7% | -3% | 8% | -3.0% | 4% | -9% | 13% | 9%
CCOC(=O)N1CCN(C(=O)CCNS(=O)(=O)c2ccc3c(c2)c(=O)n(C)c(=O)n3C)CC1 | 8%[46.1 µM] | 3%[46.1 µM] | . | . | 1% | . | -6% | -1%
CCOCCCN1CN(Cc2ccco2)CNC1=S | 4%[46.1 µM] | ? | . | . | 8% | . | 1% | -2%
Cn1c(SCc2ccccc2Cl)nc2c([nH]c3ccccc32)c1=O | 0%[46.1 µM] | . | -3% | 1.5% | . | . | -14% | .
COc1ccc(S(=O)(=O)Nc2ccc(-n3cccc3)cc2)cc1 | -27% | -2%[46.1 µM] | . | . | -15% | . | 8% | -25%
Cc1ccc(-n2nc(C(=O)c3ccccc3)n3c(=O)c(Cc4ccccc4)nnc23)cc1 | ? | ? | . | . | . | . | -8% | 1%
Cc1occc1-c1nnc(SCC(=O)Nc2nc3ccccc3s2)o1 | 60%[14.3 µM] | -25% | ? | -0.7% | 1% | -15% | 8% | 5%
COc1ccc(/C=C/C(=O)N2CCN(c3ccccn3)CC2)c(OC)c1OC | . | . | . | . | -1% | 3% | -19% | -4%

2 compounds from above, reduced to LASV entry inh, Cruzain inh Det and RE007 growth inh:
SMILES,LASV entry inh,Cruzain inh Det,RE007 growth inh
CCOc1ccc(S(=O)(=O)Nc2cccc(C(=O)NCC(c3ccco3)N(C)C)c2)cc1 (stereo unspecified),-12%,.,-27%
Cn1c(C(O)c2ccccc2)nc(Cl)c1Cl (stereo unspecified),5%,-1.4%,4%

Returning to the listing, repeating the 4 entries before the break.
SMILES | LASV entry inh | Marburg entry inh | Cruzain inh noDet | Cruzain inh Det | SARS PLpro yeast | NS1 function inh | 2A StopGo | RE007 growth inh
COc1ccc(S(=O)(=O)Nc2ccc(-n3cccc3)cc2)cc1 | -27% | -2%[46.1 µM] | . | . | -15% | . | 8% | -25%
Cc1ccc(-n2nc(C(=O)c3ccccc3)n3c(=O)c(Cc4ccccc4)nnc23)cc1 | ? | ? | . | . | . | . | -8% | 1%
Cc1occc1-c1nnc(SCC(=O)Nc2nc3ccccc3s2)o1 | 60%[14.3 µM] | -25% | ? | -0.7% | 1% | -15% | 8% | 5%
COc1ccc(/C=C/C(=O)N2CCN(c3ccccn3)CC2)c(OC)c1OC | . | . | . | . | -1% | 3% | -19% | -4%
Cc1[nH]nc2c1C1(CCN(Cc3ccccc3)CC1)C(C#N)=C(N)O2 | 8% | 1% | -4% | 1.1% | 3% | -12% | 15% | 2%
O=C(CO/N=C/c1ccccc1Cl)N1CCCc2ccccc21 | 0% | ? | -9% | -7.5% | -20% | -23% | 12% | 6%
Cc1cc(C)nc(SCc2ccc(C(=O)N/N=C3\CC(C)CC(C)(C)C3)cc2)n1 (stereo unspecified) | 7% | ? | 16% | -3.0% | -17% | 24% | -7% | 3%
CCCn1c(-c2ccccc2)nc2c(=O)n(C)c(=O)[nH]c21 | -2% | 12% | 25% | 7.4% | -10% | 3% | ? | 19%
COc1c(Cl)cc(Cl)cc1C(=O)Nc1ccc(CN2CCCCC2)cc1 | 13%[46.1 µM] | ? | . | . | 1% | -8% | 7% | -15%
CCOC(=O)Cc1csc(N/N=C/c2ccccc2)n1 | -1%[46.1 µM] | ? | 1% | -7.1% | 16% | -4% | 4% | -26%
O=C(NC1CCCc2ccccc21)C1CCN(c2nnc(-n3cccc3)s2)CC1 (stereo unspecified) | . | 6% | -5% | -0.8% | -4% | ? | 0% | 2%
O=C(O)CCC(C(=O)O)n1c(O)c(C2=c3ccccc3=NC2=O)sc1=S (stereo unspecified) | 11% | -4% | -14% | -1.6% | -5% | 15% | -18% | -24%
CC1Cc2nc(SCC(=O)NCC3CCCO3)n(-c3ccc(F)cc3)c(=O)c2S1 (stereo unspecified) | -4% | 2% | . | . | -3% | -8% | -26% | -6%
CCCOc1ccccc1C(=O)NC(CO)C(=O)O (stereo unspecified) | 6% | 0% | 3% | 5.2% | 20% | 4% | 8% | 9%
c1ccc(OCCSc2nc3ccccc3[nH]2)cc1 | ? | 3% | 2% | -19% | -69% | -18% | 22% | ?
CCC(C)n1c(SC(C)C#N)nc2ccccc2c1=O (stereo unspecified) | 4% | -5%&-5% | 9% | 1.4% | 0% | -6% | ? | 2%
COc1ccc(C)cc1NC(=O)CCNS(=O)(=O)c1cccc2nonc12 | 15% | 2%&-2%[46.1 µM] | -5% | -2.0% | -8% | -5% | 20%&2% | 5%
O=C(CSc1nnnn1-c1cccc2c1CCCC2)NC1CCCC1 | -6% | -19% | 3% | -2.1% | -6% | -46% | -9% | 1%
CC1=NN(Cc2cc(C(C)(C)C)c(O)c(C(C)(C)C)c2)C(=O)C1 | . | . | . | . | 5% | 14µM* | 3% | 7%
Cc1ccc2nc(COc3ccccc3NC(=O)c3ccccc3F)cc(=O)n2c1 | -4%[46.1 µM] | . | -12% | 3.2% | . | . | ? | .
COc1cccc(-c2nc3ccc(O)cc3c(=O)o2)c1 | 7% | ? | -8% | -10% | -6% | -112% | 43%[activator] | 0%
O=C(Nc1ccc(-c2cn3ccccc3n2)cc1)c1cccs1 | ? | 15µM* | . | . | -3% | . | -17% | -30%
CC(=O)Nc1ccc(S(=O)(=O)NCCSCc2cccc(Cl)c2)cc1 | ? | -24% | 0% | -7.5% | -12% | -9% | -5% | 7%
Cc1ccc(C(=O)NCc2ccc3c(c2)OCO3)cc1N1CCCC1=O | . | . | -9% | 1.1% | -10% | -6% | -10% | -8%
O=C(NCCN1CCN(c2ccccc2)CC1)Nc1cccc(Cl)c1 | ? | -33% | . | . | -6% | -9% | -13% | -10%
Cc1cccc(OCCSc2nnc(-c3cccs3)o2)c1 | 15%[46.1 µM] | 13%[46.1 µM] | -9% | -5.5% | . | . | -11% | .
O=[N+]([O-])c1ccc(S(=O)(=O)NN=CCCc2ccccc2)cc1 | ? | 6% | . | . | . | . | 6% | 27%
O=C(CN(c1ccccn1)S(=O)(=O)c1ccccc1)N/N=C/c1cccc([N+](=O)[O-])c1 | -1% | -5% | 6% | -0.3% | 0% | -20% | 3% | -5%
NC1=NCC(O)=C1c1nc2ccccc2[nH]1 | 8% | 7% | . | . | 0% | . | -3% | 1%
CCc1cccc(CC)c1NC(=O)CNCc1cccs1 | 7%[46.1 µM] | ? | . | . | 0% | 1% | -21% | -20%
COc1ccc(N2CCN(C(=O)c3cc([N+](=O)[O-])ccc3N3CCN(CCO)CC3)CC2)cc1 | -1% | -6% | . | . | -9% | 2% | -16% | 2%
Cc1ccc(NC(=O)c2cc(=O)c3ccccc3o2)cc1 | ? | 14% | 2% | -2.4% | 3% | -2% | 64%[activator] | -4%
COCCn1c(N)c(N(Cc2ccccc2)C(=O)Cc2c(Cl)cccc2Cl)c(=O)[nH]c1=O | -3% | 1%[46.1 µM] | . | . | 3% | . | 6% | -15%

From PubChem BioAssay
